# Screens: PubChem BioAssay, National Center for Advancing Translational Sciences (NCATS)
# gsp agonist: qHTS for Agonist of gsp, the Etiologic Mutation Responsible for Fibrous Dysplasia/McCune-Albright Syndrome: qHTS | gsp mutant cells, cAMP HTRF, 30 min; control for the full effect not named in the record | Potency, µM (titrated, usually from 76.9 µM), without a hit: at the top dose activation (cAMP increase), actives largely listed as activators | 340,000 tested, 0.13% active | AID 624287, 2012; active = well fitted activation curve with a large enough effect; inconclusive = small, poorly fitted or top-dose-only effect, or another doubt; inactive = no such curve, though single readings can be large or run the other way; cell line not stated here;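 note: phosphodiesterase inhibitor Ro 20-1724 added with compounds to block cAMP breakdown; potency is the fitted concentration of half-maximal effect; nearly all actives have a fitted effect of over 60% in size; about a fifth of the inactives were tested at one dose only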
#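 Cells stably selected in G418 were plated at 2000/well, grown 16-24 hr, then given compounds in DMSO with the PDE inhibitor […] (300 uM solution added) for 30 min at 37C; cAMP was read by HTRF.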
# Menin MLL FP FL: qHTS Assay for Inhibitors Targeting the Menin-MLL Interaction in MLL Related Leukemias: Competition With Fluorescein Labeled MLL-derived Peptide; Fluorescence polarization, fluorescein-MLL peptide displacement from menin; FP activity change, % at 61.4 µM; 290,000 tested, under 10 active; AID 1766, 2009; inconclusive = falling polarisation curve, or a change in total fluorescence; inactive = total fluorescence flat and polarisation flat or rising; no compound was filed as active; the % refers to the polarisation; negative = inhibition;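 note: % of control where 0% means no effect; inhibitors lower the polarisation; unlabelled MLL peptide was the positive control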
# ClpP mod: qHTS Assay for Activators of ClpP; Potency, µM (top dose mostly 57.5 µM), for the others: at the highest dose activity change, negative = active; 340,000 tested, 1.9% active; ATP-dependent Clp protease proteolytic subunit (Bacillus subtilis (strain 168)), P80244; purified B. subtilis ClpP, FRET peptide cleavage, 20 min; AID 651965, 2013; active = well fitted falling curve with a large enough effect; inconclusive = small, poorly fitted or top-dose-only effect; inactive = no such curve, though single readings can be large or run the other way; note: potency is the fitted concentration of half-maximal effect; the source files actives as falling curves though it sought activators and does not explain the sign; nearly all actives have a fitted effect of over 65% in size; many hits overshoot -100%
# Target sequence (P80244 whole entry, looked up): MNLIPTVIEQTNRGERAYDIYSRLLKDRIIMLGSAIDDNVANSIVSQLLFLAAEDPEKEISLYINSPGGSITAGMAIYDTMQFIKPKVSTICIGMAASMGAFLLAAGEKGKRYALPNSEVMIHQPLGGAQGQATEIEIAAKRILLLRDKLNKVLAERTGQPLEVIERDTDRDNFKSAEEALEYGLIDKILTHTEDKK
#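 FRET quenching reversal measured ClpP activation: 10 microg/mL B. subtilis ClpP at pH 8 with the FRET-FV decapeptide, read at 430 nm after 320 nm excitation. The 20-min minus 0-min signal was scaled between DMSO/no-enzyme wells and ADEP (5.8 microM final).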
# TRPML1 ag: qHTS for Agonists of the Human Mucolipin Transient Receptor Potential 1 (TRPML1). TRPML1-expressing cells, Ca2+ dye fluorescence, FDSS; host cell line not named in the record; reference of the full effect not given here. 410,000 tested, 0.12% active. activation, % (no concentration beside the values). Mucolipin-1 (Homo sapiens), Q9GZU1; in the data active = activation above about 50%; inconclusive = about 30% to 50%; inactive = below about 30%; note: 0% is about no effect; the text of the record puts the active cut at 80%
# Target sequence (Q9GZU1 whole entry, looked up): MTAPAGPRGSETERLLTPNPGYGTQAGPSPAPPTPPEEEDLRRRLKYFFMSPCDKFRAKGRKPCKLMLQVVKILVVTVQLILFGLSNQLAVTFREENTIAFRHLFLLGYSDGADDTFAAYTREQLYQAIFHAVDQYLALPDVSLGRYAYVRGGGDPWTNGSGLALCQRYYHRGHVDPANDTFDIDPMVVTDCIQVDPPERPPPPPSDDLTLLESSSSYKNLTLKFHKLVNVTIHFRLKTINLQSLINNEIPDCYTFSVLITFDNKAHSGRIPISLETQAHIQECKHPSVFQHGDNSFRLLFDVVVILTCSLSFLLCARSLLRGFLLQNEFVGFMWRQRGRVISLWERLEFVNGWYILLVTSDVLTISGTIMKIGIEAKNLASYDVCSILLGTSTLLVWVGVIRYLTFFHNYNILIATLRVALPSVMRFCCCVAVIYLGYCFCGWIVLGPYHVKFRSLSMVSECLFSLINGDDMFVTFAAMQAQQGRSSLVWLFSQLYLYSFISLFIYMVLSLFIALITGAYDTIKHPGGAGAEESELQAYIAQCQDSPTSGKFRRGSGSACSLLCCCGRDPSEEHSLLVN
#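 Agonist activity was taken from a 110 s kinetic Ca2+ dye read on the FDSS after pinning compounds onto TRPML1-DL cells. The cells were seeded at 1,500/well with Tet inducer, incubated about 16 h, then dye-loaded at room temperature.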
# gsp antag: qHTS for Antagonists of gsp, the Etiologic Mutation Responsible for Fibrous Dysplasia/McCune-Albright Syndrome: qHTS | Potency, µM (highest dose often 76.9 µM), for inactives: at the highest dose activity change, negative = inhibition, most hits filed as inhibitors | 340,000 tested, 0.4% active | gsp-mutant cells, cAMP HTRF, 30 min; control for the full effect not named in the record; active = falling curve of any shape with a large fitted effect; inconclusive = falling curve, mostly with a smaller effect; inactive = flat or rising curve; cell line not stated here;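 note: intracellular cAMP measured with PDE inhibitor Ro 20-1724 present during compound exposure; potency is the fitted concentration of half-maximal effect; % is set by controls: 0 for no effect and ±100 for the full control effect; nearly all actives have a fitted effect of over 65% in size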
#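 G418-selected cells were plated in DMEM/10% FBS for 16-24 h at 37C, then treated with compounds plus the PDE inhibitor […] (300 uM solution added) for 30 min at 37C. Intracellular cAMP was measured by HTRF after 30 min lysis at room temperature.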
# TRPML1 blocker: qHTS for Inhibitors of the Human Mucolipin Transient Receptor Potential 1 (TRPML1). Mucolipin-1 (Homo sapiens), Q9GZU1. TRPML1-inducible cells, Ca2+ dye fluorescence, FDSS; stronger effect = lower value; inhibition of EC80 agonist-evoked calcium signal. activity change, negative = inhibition, % (test concentration not listed). 390,000 tested, 0.02% active; in the data active means activity change below about -50%; inconclusive means about -30% to -50%; inactive means above about -30%;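 note: stimulus is agonist 54-4 at its EC80 concentration; % is set by controls: 0 for no effect and ±100 for the full control effect; compound concentration not given in the record; the text of the record puts the active cut at -80%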
#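 Calcium fluorescence in TRPML1-DL cells induced overnight with Tet: a 110 s read after compound pin addition, then a 110 s antagonist read after challenge with 54-4 at 4 uM final (EC80).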
# An asterisk follows results filed as active; u = inconclusive; x = not tested or not shown; & = joins results of further samples; [ ] = dose if it differs, or a comment.
molecule,gsp agonist,Menin MLL FP FL,ClpP mod,TRPML1 ag,gsp antag,TRPML1 blocker
CC(C)(C)c1ccc(S(=O)(=O)N2CCN(C(=O)c3cc(-c4ccc(Br)cc4)n[nH]3)CC2)cc1,x,x,1.7%,1.2,x,-3
Cc1ccccc1Nc1nc(N)nc(COC(=O)c2nn(C)c(=O)c3ccccc23)n1,-104%[inhibitor],x,-1.0%,-0.8,x,1
COC(=O)CNC(=O)c1ccc(NS(=O)(=O)c2cc([N+](=O)[O-])ccc2Cl)cc1,5%,-0.1,-1.5%,0.6,-6%,u
O=C(Nc1ccc(-c2nc3cccnc3s2)cc1)c1cccnc1Cl,15%[15.4 µM],-0.3,x,-0.4,12%,0
CCCCC(=O)Nc1nnc(S(=O)(=O)N2CCCc3ccccc32)s1,-36%[inhibitor],5.6,1.2%,-0.7,2%,12
CC(C)=CCCC(C)CN1CCC(n2nccc2NC(=O)C2CCCC2)CC1 (stereo not drawn),5%,2.4,0.4%,0.9,3%,5
O=C(O)CCSCCCN1C(=O)c2cccc3cccc(c23)C1=O,u,-0.3,0.2%,-0.4,-3%,11
COc1cc(NS(=O)(=O)c2ccc(NC(=O)c3ccc(F)cc3)cc2)ncn1,22%,x,45%,0.5,u,2
CCOC(=O)CC1C(=O)NCCN1C(=O)COc1ccc(C(C)(C)C)cc1 (stereo not drawn),16%[15.4 µM],-1.6,x,0.2,0%,-11
Cc1cccc(N2C(=O)C(CC(=O)Nc3ccccc3)N(C3CCCCC3)C2=O)c1 (stereo not drawn),x,x,0.3%,-0.2,x,2
O=S(=O)(Nc1nc(CN2CCOCC2)nc2sc3c(c12)CCCC3)c1cc(F)ccc1F,-2%,14,-11%,-0.5,u,-3
COc1ccc(S(=O)(=O)N2CCCC2C(=O)NCC(=O)Nc2cccc(Cl)c2C)cc1 (stereo not drawn),18%[15.4 µM],x,-0.3%,0.6,-32%,-1
Cn1nnc(NC(=O)C(c2ccccc2)c2ccccc2)n1,-3%,2.8,-3.2%,-0.2,-3%,-6
CS(=O)(=O)c1ccccc1C(=O)N(CCC1=CCCCC1)c1c(N)n(Cc2ccccc2)c(=O)[nH]c1=O,15%,x,u,-0.4,1%,-18
CCOc1ccccc1NC(=O)Cn1c(=O)n(Cc2ccco2)c(=O)c2cccnc21,x,x,2.6%,-0.7,x,-26
O=C(COC(=O)/C=C/c1ccccc1)Nc1cccnc1Cl,6%[15.4 µM],x,x,0.4,1%,-8
Cc1nc(C)c(CCNS(=O)(=O)c2ccc(C)c(C)c2)s1,x,x,1.3%,1.6,x,-7
O=S(=O)(c1ccccc1)N1CCN(C(=S)Nc2ccc(Br)cc2)CC1,-19%,x,0.2%,2.8,-8%,40
CCOc1ccc(C(=O)C2CCN(CC(=O)Nc3ccccc3N3CCOCC3)CC2)cc1,13%,1.4,-2.7%,-0.1,-15%,-11
CC(C)CNC(=O)Cn1nc(C(F)(F)F)c2c1CCCC2,1%,-1.8,x,0.5,7%,8
O=C(NC1CCCC1)c1cc(-c2ccccc2Cl)on1,u,-0.7,x,1.7,-6%,3
Cc1cc(Oc2ccc(=O)n(C)n2)nc(Oc2ccc(=O)[nH]n2)n1,1%,-1.2,-4.9%,0.1,4%,71
Cn1ccnc1SCC(=O)Nc1cc(C(F)(F)F)ccc1N1CCOCC1,-13%,-0.8,-1.7%,0.5,10%,-4
C/C(=N/NC(=O)c1nnn(-c2nonc2N)c1CSc1ccc(Cl)cc1)c1ccncc1,13%,x,-3.2%,0.6,x,-2
CCOC(=O)C1CCCN(CCc2ccccc2)C1 (stereo not drawn),1%,-0.9,1.5%,0.0,1%,-6
CCCCc1c(C)c(C#N)c2nc3ccccc3n2c1Nc1c(C)n(C)n(-c2ccccc2)c1=O,-11%,3.8,5.6%,0.3,19%,-3
COCCCNC(=S)N(CCO)Cc1cc2cc3c(cc2[nH]c1=O)OCO3,-69%[inhibitor],-3.8,x,0.9,6%,8
COCC(C)NC(=O)c1ccccc1[N+](=O)[O-] (stereo not drawn),-5%,1.5,-0.6%,1.6,10%,-3
CC(C)CNS(=O)(=O)c1ccc(CC(C)C)cc1,-10%,-1.6,x,0.2,5%,8
NC(=O)N(N)c1nc(N2CCCC2)nc(N2CCCC2)n1,-21%,x,1.8%,0.1,-11%,5
CCn1c(=NC(=O)CSC(C)=O)sc2ccccc21,24%,-1.0,-28%,-0.7,u,-5
Cc1c(C(=O)NCCCN2CCCC2=O)oc2ccccc12,0%,0.2,-0.3%,-0.5,12%,16
O=C(Nc1ccon1)c1ccc(Cl)c(S(=O)(=O)N2CCCCC2)c1,-3%[15.4 µM],x,-27%,-0.6,2%,0
COc1ccc(S(=O)(=O)NC(C)(C)CO)cc1-c1nnc2c3ccccc3c(C)nn12,x,x,-24%,2.4,x,51
CCCCCCCCCCS(=O)(=O)N/N=C/c1ccc([N+](=O)[O-])cc1,4%,-0.4,1.7%,-0.3,-8%,10
O=C(Cn1ccc(C(F)(F)F)n1)Nc1ccc(S(=O)(=O)NCc2ccco2)cc1,1%,1.8,0.1%,0.4,-2%,-9
CCCc1nc2ccccc2n1CC(O)COc1ccc(NC(C)=O)cc1 (stereo not drawn),1%[15.4 µM],-5.8,x,0.2,u,1
CCSCCOC(=O)C1=C(C)NC(=O)NC1c1cc(OC)ccc1OC (stereo not drawn),7%,-0.5,-0.8%,-0.4,-11%,43
O=C(Cn1nnc2ccccc21)N/N=C\C=C\c1ccccc1,0%,1.6,-5.4%,0.9,-14%,10
CCn1c(=O)c(C(=O)NNC(=O)c2ccccc2)c(O)c2ccccc21,0%[15.4 µM],1.0,x,13,u,10
CC(C)c1ccccc1NC(=O)COC(=O)Cc1ccsc1,5%,-0.6,-1.7%,0.8,1%,3
CC(C)OCCCNC(=O)CCCn1c(SCC(=O)c2ccc(Br)cc2)nc2c(sc3ccccc32)c1=O,x,x,-1.6%,-0.2,x,-13
COC(=O)Nc1sc2c(c1C(=O)NCc1ccco1)CCCC2,-33%[inhibitor],2.8,-0.9%,1.8,-10%,-2
O=C1C(=O)N(CCN2CCOCC2)C(c2ccc(F)cc2)/C1=C(/O)c1ccc(S(=O)(=O)N2CCOCC2)cc1 (stereo not drawn),6%[15.4 µM],-4.3,x,-0.3,3%,-20
COc1ccc(F)cc1C(=O)C1CCCN(Cc2cccn2-c2ccccn2)C1 (stereo not drawn),-4%,-3.7,x,0.6,-6%,50
Cc1cccn2c(=O)cc(COc3cccc(NC(=O)c4cccc(Cl)c4)c3)nc12,x,x,-2.0%,0.5,x,42
CN(Cc1nc(-c2cccnc2)no1)S(=O)(=O)c1ccc2ccccc2c1,-15%,6.4,-3.2%,1.6,u,-16
O=C(Cc1c(F)cccc1Cl)OCC(=O)N1CCc2ccccc21,3%[15.4 µM],x,0.2%,1.7,-5%,-8
Nn1c(SCC(=O)Nc2ccccc2)nnc(Cc2ccccc2)c1=O,-4%,x,-0.9%,0.2,-3%,22
Cc1ccc(Cn2nc(C)cc2C(=O)Nc2ccccc2Cl)cc1,16%,-1.2,x,3.0,u,19

# (next part)
molecule,gsp agonist,Menin MLL FP FL,ClpP mod,TRPML1 ag,gsp antag,TRPML1 blocker
CC(=O)c1ccc(NC(=O)c2noc3c2CCCCC3)cc1,4%,0.9,-2.0%,0.7,-13%,13
CCOC(=O)Cc1csc(NS(=O)(=O)c2ccc(NC(C)=O)cc2)n1,-2%,3.5,-1.5%,x,7%,x
Cc1cccc2sc(N(CCCN(C)C)C(=O)c3ccc(S(=O)(=O)N4CCc5ccccc5C4)cc3)nc12,-1%,-2.5,-5.6%,1.5,0%,23
COc1cccc(CNC(=O)CCNS(=O)(=O)c2ccc3c(c2)CC(C)N3C(C)=O)c1 (stereo not drawn),16%,-3.1,1.0%,0.0,0%,8
Cc1c(CCC(=O)O)c(=O)oc2cc3occ(C(C)(C)C)c3cc12,0%[15.4 µM],2.6,x,0.8,-14%,-14
Cc1cc2c(s1)CCCCC(=O)N2,-29%,2.0,-0.9%,-0.9,11%,-5
CCCCC(=O)Nc1ncc2c(n1)CC(C)(C)CC2=O,-1%,8.3,1.2%,-0.3,-4%,1
CCC(C(=O)NC1CCCCC1)n1c(SCc2ccc(F)cc2)nc2ccncc21 (stereo not drawn),u,-3.2,u,1.5&0.1,1%,8&1
Cc1cc2c(cc1C)C(=O)C(=O)N2,-8%,x,56%,0.6,3%,37
CCCCN(C(=O)c1ccc(C)c(S(=O)(=O)N2CCOCC2)c1)c1c(N)n(CC(C)C)c(=O)[nH]c1=O,7%,x,-1.7%,-0.1,9%,5
c1cc(C2CCCCC2)ccc1Oc1nc(N2CCOCC2)nc(N2CCOCC2)n1,6%,1.4,-3.7%,-0.2,-6%,-12
Cc1nc(C)c(C(=O)N2CCCC(C(=O)c3ccc4ccccc4c3)C2)s1 (stereo not drawn),-20%,-0.1,u,0.1,-24%,14
Oc1ccccc1CN1CCN(C(O)(c2ccccc2)c2ccccc2)CC1,-14%,3.3,0.2%,0.2,3%,34
COc1cccc(CN2C(=O)c3ccccc3C2C(=O)NCC2CCCO2)c1 (stereo not drawn),-30%[inhibitor],-3.3,-0.8%,2.0,-4%,1
O=C(CN1C(=O)c2ccccc2C1=O)c1ccc(F)cc1,12%[15.4 µM],-14,-2.3%,-0.7,-15%,-26
CN(Cc1ccccc1)C(=O)CCC1CCN(S(=O)(=O)N(C)C)CC1,-5%,2.8,x,0.1,8%,-14
Cc1cc(NC(=O)c2c(Cl)cnn2C)no1,u,1.3,3.1%,-0.4,10%,11
CN1CCN(C2CCN(c3cccc(Cl)c3)CC2)CC1CCO (stereo not drawn),-26%,1.3,1.2%,0.0,7%,17
Cc1cc(C(=O)Nc2cccc(C)c2C)n(-c2ccccc2)n1,-24%,9.5,0.3%,0.7,-2%,-23
